# Compound activity as filed in PubChem BioAssay.
# Sa RN4220 lethal: growth inhibition of S. aureus RN4220, primary screen, OD600 | 16 h | hit rate 0.33% among 330,000 | inhibition, % (test concentration not listed);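 active = z-score of -3 or lower and OD600 up to 0.18 on both plates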;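 note: plate controls were untreated cells for no effect and reference antibiotic for full effect; stock transfer was 100 nL into about 80 µL; one replicate is shown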
# PrP UTR inh: inhibition of PrP 5' UTR reporter expression | inhibition, % (concentration not given with the values) | AID 488862, 2010 | hit rate 0.35% among 340,000 | cell-based PrP 5' UTR mRNA reporter, plate reader;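 active = every replicate at 50% or more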;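 note: 0 = median of the neutral control wells; tested in H4 reporter cells; numbers are from one replicate; inactives centre near -14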
# Sa ugtP lethal: growth inhibition of ugtP-null S. aureus, primary screen, RN4220 ugtP deletion, OD600 | 16 h; some inactives read as strong as hits | growth inhibition, % (test concentration not listed) | hit rate 0.54% among 330,000 | AID 1259309, 2017;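 active = z-score under -3 and OD600 up to 0.15 on both plates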;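 note: plate controls were untreated wells for no effect and antibiotic for full effect; wells of about 80 µL received 100 nL stock; the first replicate is given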
# BJeLR lethal: MLPCN primary cell-based screen for lethality selective to Ras in HRASV12 cells; BJeLR (HRASV12) viability, CellTiter-Glo ATP luminescence, 48 h; reference of the scale not given here; inhibition, % (concentration not given with the values); hit rate 0.17% among 300,000; AID 1554, 2009;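 active = replicate mean above 50%; inconclusive = above 50% but judged a plate artefact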;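 note: 50 nL library stock added to about 25 µL; numbers are from one replicate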
# Bead autofluor: flagged as autofluorescent in microsphere protease counterscreen; compound autofluorescence counterscreen, microsphere flow cytometry; active compounds read high; fluorescence intensity (concentration not given with the values); hit rate 3.1% among 360,000;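 active = at least 3 SD above the mean of all compounds, about 16000 in these data; inconclusive = too few beads counted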;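 note: 100 nL of 1 mM stock went into each well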
# Mtb hypoxia inh: PubChem AID 1159583; hit rate 0.1% among 300,000; fluorescence inhibition, % (test concentration not listed); M. tuberculosis hypoxia-regulated fluorescent reporter, fluorescence;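 active = 35 to 45% if threefold the growth effect, above 45% if 1.5-fold the growth effect; inactive = the rest, general growth blockers included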;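 note: wells of about 50 µL received 100 nL stock; 0% = vehicle wells and 100% = reference inhibitor wells; whole bacteria with a GFP reporter of the hypoxia response; strong numbers were not always called active; many hits fall short of the cut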
# Mtb hypoxia inh growth: second read-out of Mtb hypoxia inh, no call of its own (marks repeat the call); growth inhibition, %; measured here: M. tuberculosis growth (absorbance);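 0% = vehicle and 100% = reference antibiotic; read after six days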
# An asterisk follows results filed as active; u = inconclusive; x = not tested or not shown.
SMILES,Sa RN4220 lethal,PrP UTR inh,Sa ugtP lethal,BJeLR lethal,Bead autofluor,Mtb hypoxia inh,Mtb hypoxia inh growth
Cc1cccc(C(=O)NC2CCN(CC(=O)NCc3cccs3)CC2)c1,0.5,-25.6,2.3,-5.2,4740,-4.1,4.4
CC(C)N(CC(N)=O)C(=O)Cc1coc2cc3c(cc12)CCC3,3.1,-16.2,9.0,-2.1,2735,1.7,0.6
O=C(Nc1ccccc1N1CCCCC1)c1ccc(Cl)cc1,-4.2,-23.8,33.9,-2.1,3343,22.1,11.8
Clc1cccc(N2CCNCC2)c1,3.0,-10.4,5.6,11.0,4247,5.6,6.8
O=C(NC1CCSc2ccccc21)c1cccc(OC(F)F)c1 (stereo unspecified),-0.2,-7.4,0.8,3.2,5737,-3.2,6.1
O=C(O)c1ccc(Oc2cc(Oc3ccc(C(=O)O)cc3)cc([N+](=O)[O-])c2)cc1,-0.5,-14.7,0.5,-7.6,3305,-1.0,8.5
NC(=O)N/N=C/c1ccc(-c2ccc([N+](=O)[O-])cc2)o1,x,-19.3,x,-13.7,4145,x,x
COc1ccc(NC(=O)N2c3ccccc3C(C)=CC2(C)C)cc1,2.2,-24.0,2.2,3.6,2707,-0.2,0.5
O=C(Nn1cnnc1)C1CCCN1S(=O)(=O)c1ccc(F)cc1 (stereo unspecified),2.7,-16.7,1.3,8.6,12257,2.9,7.9
CC(C)(C)NS(=O)(=O)c1cccc(S(=O)(=O)c2cccc(S(=O)(=O)NC(C)(C)C)c2)c1,4.2,x,-5.7,x,x,-2.5,4.6
Cc1ccc(NC(=O)C2CC2C)cc1S(=O)(=O)N1CCOCC1 (stereo unspecified),-1.1,-21.9,5.3,0.1,5377,9.5,1.4
O=c1c2cc(Cl)ccc2nc(-c2ccccc2)n1O,23.7,-26.1,4.0,-1.9,2667,11.9,3.1
CCCn1c(=S)[nH]c2cc(C(=O)N3CCN(C4CCCCC4)CC3)ccc2c1=O,-1.2,-4.9,-1.3,3.6,u,-11.8,-4.1
CC(C)N(c1ccccc1)c1ccc(NC(=O)CCl)cc1,6.1,-11.5,-16.6,11.6,4652,20.8,25.1
COC(=O)CNc1nc(-c2ccncc2)nc2ccccc12,7.1,-3.6,-7.3,0.3,4637,1.6,11.0
O=C(NC1CCS(=O)(=O)C1)/C(=C/c1ccc(Cl)cc1)NC(=O)c1ccccc1 (stereo unspecified),x,-9.8,x,-11.9,1985,x,x
COc1ccc(CC(=O)NC(C)c2nnc(SCC(=O)Nc3cc(C)ccc3OC)n2C)cc1 (stereo unspecified),-5.8,-31.4,-6.1,1.3,4399,-5.3,6.2
COc1ccc(CCNS(=O)(=O)c2ccc3c(c2)CC(C)N3C(C)=O)cc1OC (stereo unspecified),2.4,-11.7,3.9,7.6,4338,x,x
CC1CCCCN1Cc1nc2ccccc2c(=O)[nH]1 (stereo unspecified),-3.1,-34.2,5.4,0.3,3507,x,x
O=C1[C@@H]2C(c3ccccc3Cl)=NO[C@@H]2C(=O)N1Cc1ccccc1,-0.6,-12.7,-0.9,2.7,4794,x,x
Cc1ccc(NC2=NC(c3ccc(C)cc3)n3c(nc(C)cc3=O)N2)cc1 (stereo unspecified),2.3,-5.6,-6.2,-4.6,23058*,-4.1,14.0
Cc1ccc(NC(=O)COC(=O)CCc2c[nH]c(=O)[nH]2)cc1,-2.2,-15.8,-5.4,6.4,4551,-1.7,-0.3
CCNC(=S)N1CCN(c2ncccn2)CC1,-0.8,-12.9,-2.8,-13.5,10704,9.3,12.4
Cc1oncc1C(=O)Nc1cccc(C#N)c1,x,-9.3,x,-3.6,6196,x,x
CC(=O)N1c2ccc(S(=O)(=O)N3CCCC(C(=O)NCc4ccccc4)C3)cc2CC1C (stereo unspecified),1.6,-16.2,-3.7,19.2,6520,2.9,-4.7

# Looked up above.
# Reading of `CC(C)N(c1ccccc1)c1ccc(NC(=O)CCl)cc1` in BJeLR lethal: 11.6
# Reading of `O=C(NC1CCS(=O)(=O)C1)/C(=C/c1ccc(Cl)cc1)NC(=O)c1ccccc1` (stereo unspecified) in PrP UTR inh: -9.8
# Reading of `Cc1oncc1C(=O)Nc1cccc(C#N)c1` in PrP UTR inh: -9.3

# Carrying on.
SMILES,Sa RN4220 lethal,PrP UTR inh,Sa ugtP lethal,BJeLR lethal,Bead autofluor,Mtb hypoxia inh,Mtb hypoxia inh growth
FC(F)(F)C1=CC(c2ccccc2)=NCCN1,2.7,-3.5,-2.2,-4.1,2733,x,x
CCN1CCN(C(=O)C2CCN(Cc3cc(Cl)ccc3O)CC2)CC1,0.5,-5.3,-1.9,1.6,4313,4.0,18.3
CCS(=O)(=O)c1ccc2oc(SCC(=O)N3c4ccccc4CC3C)nc2c1 (stereo unspecified),0.9,-29.5,-3.9,3.9,8957,6.8,5.7
Cc1cccc(C)c1NC(=S)N1CCCN(C)CC1,1.4,-9.8,3.2,-1.4,4148,8.6,5.9
COc1ccc2oc(C(=O)OCC(=O)Nc3cc(S(=O)(=O)N4CCOCC4)ccc3OC)c(C)c2c1,6.6,-19.7,2.3,0.2,5216,7.7,0.0
O=C(COc1ccc(Br)cc1F)NCC1(N2CCCCC2)CCCCC1,3.7,-22.3,11.3,x,3427,8.7,8.0
COc1cc(OC)cc(-c2nnc(N(C)C(=O)c3ccncc3)s2)c1,2.8,-23.4,8.4,-12.8,4322,0.3,8.1
CCCNC(=O)C(Cc1ccc(Cl)cc1)NC(=O)c1ccc(C#N)cc1 (stereo unspecified),6.7,-20.6,1.8,x,3979,1.9,7.2
COc1ccc(/C=N\NC(=O)c2ccccc2F)cc1COc1ccc(F)cc1F,x,-7.2,x,27.1,6713,x,x
COc1cc(/C=N/NC(=O)c2cc(C3CC3)[nH]n2)cc(OC)c1OC,x,-13.6,x,10.8,6066,x,x
CC1(c2nnc(-c3ccccc3)o2)CC(c2ccccc2)=NO1 (stereo unspecified),4.5,-16.2,6.6,8.3,3680,15.3,18.3
Cc1ccc(C(=O)CCC(=O)NN2C(=O)NC3(CCCCC3)C2=O)cc1,2.7,17.4,2.3,-2.3,6197,-0.5,10.8
O=c1c2c(C(F)(F)F)cc(C(F)(F)F)nc2[nH]n1-c1ccccc1,30.7,x,12.9,0.0,12593,7.7,4.7
NC(=O)C1CCN(C(=O)c2ccc3ccccc3c2)CC1,2.1,-21.2,9.9,-6.6,3546,5.1,6.1
CCCCCCCCCCCCCCCC(=O)OCC(COP(=O)([O-])OCC[N+](C)(C)C)OC(=O)CCCCCCCCCCCCCCC (stereo unspecified),10.1,x,1.7,x,x,-0.1,1.7
O=C1CCC(=O)N1c1nc2n(n1)C(c1ccccc1)C=C(c1ccc(Br)cc1)N2 (stereo unspecified),-0.9,-5.5,-5.6,1.1,8795,1.9,2.5
Cc1ccc(S(=O)(=O)N2CCCCC2)cc1C(=O)N(C)CC(=O)Nc1ccc(Cl)c(C(F)(F)F)c1,0.6,-16.9,-1.3,-7.7,5559,5.5,3.9
CCOC(=O)c1ccccc1NS(=O)(=O)c1ccccc1,5.2,0.1,4.0,-8.5,8148,0.6,-1.4
N/C(=N\OC(=O)/C=C/c1ccccc1)c1ccc(Br)cc1,x,-0.8,x,0.7,2026,x,x
CCOC(=O)CCSc1nc(C)c2cc(C)ccc2n1,6.3,-83.1,10.2,1.9,11063,17.9,6.1
CN(CC(=O)NCc1ccc(F)cc1)S(=O)(=O)c1ccc(Br)s1,0.9,-1.0,6.2,-3.0,3511,-2.1,1.6
COCc1[nH]nc2c1C(c1c(F)cccc1Cl)C(C#N)=C(N)O2 (stereo unspecified),3.1,-8.3,12.6,x,3671,x,x
CS(=O)(=O)c1ccc(Cl)c(NC(=O)COC(=O)c2ccc(-n3cnnn3)cc2)c1,3.5,-14.4,6.7,-2.4,5491,4.9,-6.4
Cn1c(SCc2n[nH]c(=S)o2)nnc1-c1ccccc1,0.9,-19.9,3.1,-8.2,9213,5.3,9.7
Cc1cc(C)c(S(=O)(=O)/N=C2\C=C(Nc3ccc(C(=O)O)cc3)C(=O)c3ccccc32)c(C)c1,x,-41.7,x,31.3,4134,x,x

# Compound profiles, as listed above.
# Entry for Cc1ccc(S(=O)(=O)N2CCCCC2)cc1C(=O)N(C)CC(=O)Nc1ccc(Cl)c(C(F)(F)F)c1 → Sa RN4220 lethal: 0.6; PrP UTR inh: -16.9; Sa ugtP lethal: -1.3; BJeLR lethal: -7.7; Bead autofluor: 5559; Mtb hypoxia inh: 5.5; Mtb hypoxia inh growth: 3.9
# Entry for CC1(c2nnc(-c3ccccc3)o2)CC(c2ccccc2)=NO1 (stereo unspecified) → Sa RN4220 lethal: 4.5; PrP UTR inh: -16.2; Sa ugtP lethal: 6.6; BJeLR lethal: 8.3; Bead autofluor: 3680; Mtb hypoxia inh: 15.3; Mtb hypoxia inh growth: 18.3

# Next section:
SMILES,Sa RN4220 lethal,PrP UTR inh,Sa ugtP lethal,BJeLR lethal,Bead autofluor,Mtb hypoxia inh,Mtb hypoxia inh growth
Cc1ccccc1CN(CC1CCC(C(=O)O)CC1)C(=S)Nc1ccccc1F (stereo unspecified),-1.5,-23.0,0.8,-0.5,3385,9.3,4.6
Cn1c(=O)n(Cc2ccc(Cl)cc2)c(=O)c2c1nc1n2CCN1Cc1ccco1,-1.6,-9.3,7.3,9.0,8692,10.9,19.9
COC(=O)CC1C(=O)NCCN1C(=O)Nc1cccc(Cl)c1 (stereo unspecified),-0.4,-3.5,8.1,2.4,4429,5.3,3.3
CCOC(=O)c1cccnc1SCC(=O)NCc1ccccc1,8.6,-16.1,5.3,8.3,19817*,13.3,8.7
O=C(COc1ccc([N+](=O)[O-])cc1)Nc1ccc(C(=O)NCc2cccnc2)cc1,2.6,-13.4,10.3,62.9*,9679,8.3,3.2
CC(C)c1ccc2occ(-c3nn[nH]n3)c(=O)c2c1,4.1,-22.6,-11.4,16.3,2795,-3.7,-0.6
CCOc1cccc(/C=C(/C#N)c2nc3ccccc3[nH]2)c1OCC(=O)O,5.4,-21.9,5.5,-7.0,3450,7.4,-0.5
Cc1ccc(C(NC(=O)c2cccc(S(=O)(=O)N3CCN(C)CC3)c2)c2ccccc2)cc1 (stereo unspecified),2.0,-3.5,0.8,x,3676,16.7,9.4
N/C(Cc1cccc2ccccc12)=N\OC(=O)c1ccccc1F,4.4,-4.6,3.4,-0.2,4391,2.5,-12.3
C1=CC2CC1CC2CN1CCN(Cc2ccccc2)CC1 (stereo unspecified),6.4,-12.9,-1.4,1.3,2279,3.6,4.5
CCCCN1C(=O)/C(=C/C=C2\N(C)c3ccccc3C2(C)C)SC1=S,-14.3,x,-8.9,1.4,x,x,x
CCN(CC(=O)NC1CCCCC1)S(=O)(=O)c1ccc(Cl)cc1,2.1,-13.0,1.2,-3.3,3807,x,x
COC(=O)[C@@H](NC(=O)c1ccc(OC2CCN(Cc3ccccn3)CC2)cc1)C(C)C,2.1,-33.1,4.7,-9.9,2589,7.7,1.4
CCOc1ccc(/C=C2/SC(=S)N(n3c(C)ccc3C)C2=O)cc1,-2.2,-9.4,5.4,0.7,4287,7.9,12.3
Cc1ncsc1C(=O)N1CCCC(C(=O)c2ccc3ccccc3c2)C1 (stereo unspecified),4.2,-10.7,4.3,-2.4,4276,8.2,-1.1
CCC(=O)c1ccc(N2CCOCC2)c(F)c1,-3.0,-15.5,-3.5,9.9,3236,-1.9,7.1
Cc1ccc(CNc2nc3ccccc3n3cnnc23)cc1,2.4,11.6,9.6,0.3,4350,6.2,7.5
Cc1ccc(NC(=O)COC(=O)c2ccc(S(=O)(=O)NCc3ccco3)cc2)cc1,4.9,x,0.4,x,x,14.0,10.5
Cc1cc(C)n2nc(C(=O)NCc3ccccc3)cc2n1,4.2,x,11.1,1.5,8310,14.1,0.0
O=C(c1ccc(F)cc1)N1CCN=C1c1ccccc1,8.7,-36.2,8.8,0.8,9350,-3.1,0.1
C=C(C)c1cccc(C(C)(C)NC(=O)Nc2nnc(C(C)C)s2)c1,7.4,-14.3,-1.8,-3.3,4576,9.7,8.3
CSc1nnc(C(C)(C)C)c(=O)n1/N=C/c1ccc(C(C)C)cc1,x,-55.2,x,2.1,3529,x,x
CC(C)N(C)Cc1nnnn1CC(=O)NCc1cc(F)cc(C(F)(F)F)c1,1.6,-29.6,2.8,-0.3,3692,-3.6,6.5
Nc1cccc(S(=O)(=O)c2ccc(N)c(N)c2)c1,7.9,-11.5,9.8,-3.4,4834,2.7,-2.0
Cc1ccc2occ(CN3CCN(Cc4ccccc4)CC3)c(=O)c2c1,5.0,x,0.6,-13.8,x,11.7,4.7
CN(C)CCCNC(=O)c1ccc(Oc2ccccc2)cc1,-5.9,87.9*,-10.0,-1.4,2798,3.6,2.5
